Assay outcomes: PubChem, Johns Hopkins Ion Channel Center
KCNQ2 block – KCNQ2 potassium channel inhibitors, primary screen, cell-based, CHO-K1, FluxOR thallium flux, B-score (AID 2156) | Potassium voltage-gated channel subfamily KQT member 2 (Rattus norvegicus), O88943 | 20 min; stronger effect = lower value; only compounds with negative scores are shown here; some inactives read as strong as hits | B-score at 10 µM | 310,000 compounds, 1.1% hits;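 active = fluorescence ratio B-score at most minus 3 library SDs, with starting brightness B-score within 2 library SDs, cut at about -5.5 in these data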
Target sequence (O88943 whole entry, looked up): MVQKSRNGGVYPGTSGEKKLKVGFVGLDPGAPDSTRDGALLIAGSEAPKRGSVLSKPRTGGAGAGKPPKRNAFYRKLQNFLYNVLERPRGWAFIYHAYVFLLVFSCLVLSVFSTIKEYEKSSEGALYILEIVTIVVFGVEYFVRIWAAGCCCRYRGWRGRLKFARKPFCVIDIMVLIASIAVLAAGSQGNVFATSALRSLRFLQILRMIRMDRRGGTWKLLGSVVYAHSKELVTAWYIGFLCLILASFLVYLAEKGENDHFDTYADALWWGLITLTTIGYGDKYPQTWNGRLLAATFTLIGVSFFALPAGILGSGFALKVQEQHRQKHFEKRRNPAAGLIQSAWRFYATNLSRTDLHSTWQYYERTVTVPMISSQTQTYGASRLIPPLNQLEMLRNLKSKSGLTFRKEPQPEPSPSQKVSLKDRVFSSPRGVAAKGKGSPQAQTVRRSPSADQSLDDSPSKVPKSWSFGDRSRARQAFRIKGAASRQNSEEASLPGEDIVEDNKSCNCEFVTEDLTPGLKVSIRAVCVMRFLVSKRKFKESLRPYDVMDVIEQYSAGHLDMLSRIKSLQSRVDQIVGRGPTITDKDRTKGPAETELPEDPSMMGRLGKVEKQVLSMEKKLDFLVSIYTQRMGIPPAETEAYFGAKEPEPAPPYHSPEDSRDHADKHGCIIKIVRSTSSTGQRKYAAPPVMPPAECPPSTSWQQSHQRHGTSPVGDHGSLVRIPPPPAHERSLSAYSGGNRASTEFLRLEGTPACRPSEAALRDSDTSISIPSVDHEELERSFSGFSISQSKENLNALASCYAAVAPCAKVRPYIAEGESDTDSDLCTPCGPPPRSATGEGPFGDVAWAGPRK
KCNQ2 block baseline – further read-out of KCNQ2 block, marked with its call; B-score; measured here: initial fluorescence intensity artifact check;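 brightness before thallium and not channel activity; 0 = typical well and far values either way flag optical interference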
Numbers without * were called inactive; i = inactive. These rows are one share of the data; count on the stated rates, not on these rows.

SMILES	KCNQ2 block	KCNQ2 block baseline
O=C(NCc1ccccc1)c1ccc(C(=O)N(C2CCCCC2)C2CCCCC2)cc1	i	1.8
Cc1ccc(NC(=S)Nc2ccc(Br)cc2)cc1	i	-2.4
CC1=CC(C)(C)N2C(=O)C3(C(C#N)=C(N)OC4=C3C(=O)CC(C)(C)C4)c3cc(C)cc1c32 (stereo not drawn)	i	2
CSc1cccc(NC(=S)N(CCC(C)C)C2CCN(C(C)=O)CC2)c1	i	1.5
S=c1[nH]nc(-c2cc(-c3ccsc3)n[nH]2)n1-c1cccc2ccccc12	i	-0.82
CC1(c2cccc3ccccc23)NC(=O)N(CC(=O)NC2CCS(=O)(=O)C2)C1=O (stereo not drawn)	i	0.71
CSCC[C@H](NC(=O)[C@H]1CC[C@H](CNC(=O)[C@@H]2CCCN2)CC1)C(=O)O	i	1.6
O=C(Cn1ccc([N+](=O)[O-])n1)Nc1ccccn1	i	-0.01
O=C(c1cccc(S(=O)(=O)N2CCc3ccccc32)c1)N1CCN(c2ccccn2)CC1	i	1.4
COC(=O)CNC(c1ccccc1)c1cc(Br)ccc1NC(=O)OCc1ccccc1 (stereo not drawn)	-7.4*	-0.77*
COc1ccc(C(CNC(=O)C(C)(C)Oc2ccc(Cl)cc2)N2CCCCC2)cc1 (stereo not drawn)	i	0.46
COC(=O)Nc1ccc(S(=O)(=O)N2CCCC(C(=O)N3CC(C)OC(C)C3)C2)cc1 (stereo not drawn)	i	0.67
COc1ccc(NC(=O)c2ccc3c(c2)NC(=O)CS3)cc1S(=O)(=O)Nc1ccc(Br)cc1	i	-0.17
COc1ccc(NC(=S)N(CCN2CCOCC2)C2CCN(C(C)=O)CC2)cc1Cl	i	0.9
COc1ccccc1OCC(=O)NCCSCc1ccccc1Cl	-6.2*	-0.06*
COc1ccc(C2=Nn3c(nnc3C3CCCCC3)SC2)cc1OC	i	-0.31
OCCn1c(-c2ccc3c(c2)OCO3)csc1=Nc1ccccc1	i	-0.08
CCOC(=O)C1=C(N)Oc2cc(O)ccc2C1c1ccc(Br)cc1 (stereo not drawn)	i	-2
CCC(C(=O)Nc1ccc(OC)c(Cl)c1)c1ccccc1 (stereo not drawn)	i	0.01
Cc1nn2c(-c3ccccn3)ccnc2c1Cl	i	-0.9
Cc1ccccc1Nc1nc(-c2sc(NC(=O)c3ccco3)nc2C)cs1	i	-0.61
COc1ccc(CCNS(=O)(=O)c2cc3c(cc2C)NC(=O)CO3)cc1OC	i	-1.3
O=C(COC(=O)CCCNC(=O)c1ccc(Cl)cc1)Nc1cc(Cl)ccc1Cl	i	-0.3
Cc1ccsc1C(=O)OCC(=O)NCc1ccco1	i	-1.4
Cc1nc(-c2cccnc2)sc1C(=O)N/N=C/c1ccccc1Cl	i	0.97

Continuation.
SMILES	KCNQ2 block	KCNQ2 block baseline
COc1ccc(NC(=O)CC2SC(N)=NC2=O)c([N+](=O)[O-])c1 (stereo not drawn)	i	0.1
C/C=C/c1ccc(OCCCNCC(C)O)c(OC)c1 (stereo not drawn)	i	0.44
CN(C)C(CNC(=O)c1ccc(C2SCCS2)cc1)c1ccccc1 (stereo not drawn)	i	-1.2
COc1ccc(C(O)P(=O)(OCCC(C)C)c2ccc(N(C)C)cc2)cc1 (stereo not drawn)	i	-1
COc1ccc(S(=O)(=O)Nc2ccc(S(=O)(=O)Nc3nc(C)cc(C)n3)cc2)cc1OC	i	1.4
O=C(Nn1c(C2CCCCC2)nc2ccccc2c1=O)c1cc(Cl)ccc1[N+](=O)[O-]	i	0.45
O=[N+]([O-])c1ccccc1/C=N\N1CCN(c2ccccc2)CC1	i	-1.5
C=CCn1c(C)cc(C2=NNC(=NCc3ccccc3)SC2)c1C	i	0.13
Fc1ccccc1NC(=S)NCc1ccc(Cl)cc1	i	-0.07
COc1ccc(NC(=O)C(CC(=O)O)C(C)c2ccccc2)cc1 (stereo not drawn)	i	-0.15
Cc1cnc(CNC(=O)c2ccc(OC3CCN(C(=O)C4CC4)CC3)cc2)cn1	i	-0.68
CCOc1ccc(NC(=O)CN(C)CC(=O)Nc2cccc(Cl)c2C)cc1OCC	i	0.85
CCCOCC(O)COc1ccccc1C(=O)N1CCOCC1 (stereo not drawn)	i	0.25
O=C(OCn1nnc2ccccc2c1=O)c1cc(-c2ccccc2Cl)nc2ccccc12	i	1.1
COc1ccc(/C=N/NC(=O)c2nonc2N)cc1OC	i	0.16
COC(=O)c1cc(COC(=O)c2ccc(OC)c(S(=O)(=O)N3CCCC3)c2)oc1C	i	-0.23
CCc1ccc(-c2ccc(SCC(=O)Nc3nnc(C)s3)nn2)cc1	i	0.15
CC(=O)/C=C(\C)Nc1ccccc1O	i	-0.42
Cc1onc(-c2ccccc2Cl)c1C(=O)Nc1ccc(-n2nncc2-c2ccco2)cc1	i	1.1
COc1cc(OC)cc(-c2nc(N)n[nH]2)c1	i	-0.56
CN1C(=O)CC(N2CCN(c3ncccn3)CC2)C1=O (stereo not drawn)	i	1.4
CCC(OC(=O)c1cccs1)C(=O)NC1CCCCC1 (stereo not drawn)	i	-0.53
CC1CCN(CC(=O)N2CCc3ccccc32)CC1	i	-0.13
N#CCOc1ccccc1/C=C/c1nc2ccccc2c(=O)[nH]1	i	-2.8
O=C(NNC(=O)C1CCC1)c1ccccc1F	i	-1.9

Other structures.
SMILES	KCNQ2 block	KCNQ2 block baseline
CCOC(=O)c1cnc(-n2nc(C)cc2C)nc1NC1CCCCC1	-8.9*	-0.22*
C=CCNC(=O)Cc1c(OC)ccc2cc(Br)ccc12	i	1.4
CCS(=O)(=O)c1nc(S(=O)(=O)c2ccc(C)cc2)c(N2CCOCC2)s1	i	0.89
O=C(/C=C\Nc1cccc(F)c1)c1cccs1	i	0.98
Cc1cc(NC(=O)Cn2nc(C(F)(F)F)c3c2CCC3)no1	i	1.8
O=C(CCCNC(=O)c1ccc(Cl)cc1)NCc1ccc(F)cc1	i	0.09
COc1ccccc1/C=C/C=N/N1CCN(Cc2ccccc2)CC1	i	0.06
COc1cc(/C=C(/C#N)c2nc3ccccc3[nH]2)ccc1OCc1ccc(C(=O)O)o1	i	2.1
CCOC(=O)C1(CCCc2ccccc2)CCN(C(=O)CN2C(=O)CSC2=O)CC1	i	1.3
N#Cc1cc(C#N)c(SCC(=O)NCC2CCCO2)nc1N (stereo not drawn)	i	0.02
CCN1C(=O)C(CC(=O)Nc2c(C)cccc2C)Nc2cc(S(=O)(=O)N(C)C)ccc21 (stereo not drawn)	i	-1.1
Cc1ccn(-c2n[nH]c(C)c2[N+](=O)[O-])n1	i	-0.21
COc1ccc(C(CNC(=O)c2oc3ccc(Br)cc3c2C)N2CCCCC2)cc1 (stereo not drawn)	-6.2*	-1.6*
FC(F)(F)c1cccc(-c2nnc(-c3ccccc3)c(N3CCOCC3)n2)c1	i	-0.01
Cc1ccccc1OCCCn1c(CO)nc2ccccc21	i	0.45
Cc1ccc2c(c1)C(=C(C#N)C#N)C(=O)N2CCN1CCOCC1	i	1.4
Cc1ccc2[nH]cc(CCNC(=O)Nc3ccccc3)c2c1	i	0.46
CCCNC(=O)c1c(O)c2cccc3c2n(c1=O)CCC3	i	-0.01
CCCn1c(NC(=O)c2ccccc2)nc2ccccc21	i	0.63
O=C(Nn1c(SCc2ccc([N+](=O)[O-])cc2)nc2ccccc2c1=O)c1ccc(F)cc1	i	-4.7
Cc1cc(OCC(=O)NC(C)(C)C)ccc1Cl	i	-0.87
O=C(NCc1ccco1)c1cc2sccc2n1Cc1ccc(F)cc1	i	-0.86
Cn1cc(SCC(=O)Nc2nc3ccccc3s2)c2ccccc21	i	1.4
O=C(Oc1ccc(NC(=O)c2cc3c(cc2Br)OCO3)cc1)c1ccccc1	i	1.5
Cc1ccc(C2=CSC3=NNC4(CCCCC4)NN23)cc1	i	1.6

Six of these compounds, reformatted:
SMILES,KCNQ2 block,KCNQ2 block baseline
Cc1cc(NC(=O)Cn2nc(C(F)(F)F)c3c2CCC3)no1,i,1.8
O=C(CCCNC(=O)c1ccc(Cl)cc1)NCc1ccc(F)cc1,i,0.09
COc1ccccc1/C=C/C=N/N1CCN(Cc2ccccc2)CC1,i,0.06
COc1cc(/C=C(/C#N)c2nc3ccccc3[nH]2)ccc1OCc1ccc(C(=O)O)o1,i,2.1
CCOC(=O)C1(CCCc2ccccc2)CCN(C(=O)CN2C(=O)CSC2=O)CC1,i,1.3
N#Cc1cc(C#N)c(SCC(=O)NCC2CCCO2)nc1N (stereo not drawn),i,0.02

A second format for some results above.
O=C(Nn1c(SCc2ccc([N+](=O)[O-])cc2)nc2ccccc2c1=O)c1ccc(F)cc1
  KCNQ2 block: i
  KCNQ2 block baseline: -4.7

Cc1cc(OCC(=O)NC(C)(C)C)ccc1Cl
  KCNQ2 block: i
  KCNQ2 block baseline: -0.87

(list continues)
SMILES	KCNQ2 block	KCNQ2 block baseline
O=C(CC1Sc2ccccc2NC1=O)NNC(=O)Nc1ccc(Cl)cc1 (stereo not drawn)	i	-0.8
O=C(NNC(=O)c1ccccc1O)c1cc2ccccc2o1	i	0.77
COC(=O)CC1=C(C(=O)OC)C(c2cccc(OCC(N)=O)c2)C(C#N)=C(N)O1 (stereo not drawn)	i	0.57
O=C(c1ccc(F)cc1)C1CCN(Cc2ccc(F)cc2)CC1	i	1.8
CCOC(=O)c1ccc(N2C(=O)CC(N(C)CCc3ccc(OC)c(OC)c3)C2=O)cc1 (stereo not drawn)	i	-0.37
Cc1ccc(SC(C)C(=O)NCCC2=CCCCC2)cc1 (stereo not drawn)	i	0.54
CCOc1ccc(/C=N/OCC(=O)Nc2cc(S(=O)(=O)N3CCOCC3)ccc2OC)cc1	i	0.46
COC1=CC(=O)C(O)=C(CCCCCCC/C=C/CCCCCCCC2=C(O)C(=O)C=C(OC)C2=O)C1=O	-6.6*	-0.98*
O=C(NCc1ccco1)c1cc2ccc(O)cc2oc1=O	i	1.6
O=C(CCCc1c[nH]c2ccccc12)NCc1ccc2c(c1)OCO2	i	-0.05
CCc1c(C)sc(NC(=O)OC)c1C(=O)N1CCOCC1	i	0.61
O=C(CNC(=O)c1cccc(Br)c1)N/N=C/c1cc(Br)cc(Br)c1O	i	-0.01
Cc1c(/C=N\NC(=O)c2csc3ccccc23)cnn1C	i	1.3
CC(=O)c1cccc(NC(=O)C2CCCN(S(C)(=O)=O)C2)c1 (stereo not drawn)	i	0.76
C/C(=N\Nc1nccnc1Cl)c1ccc(F)cc1	i	-0.59
O=C(N/N=C/c1ccccn1)c1cc([N+](=O)[O-])cc([N+](=O)[O-])c1	i	-2.2
C=CCSc1nnc(-c2nnc(SCC=C)n2CC)n1CC	i	0.45
CCCn1c(NCc2ccc3c(c2)OCO3)nc2ccccc21	i	1.8
COC(=O)C1CCN(C(=O)c2ccc(NC(C)=O)cc2)CC1	i	0.33
CC1CCCCN1S(=O)(=O)c1ccc(C(=O)Nc2sccc2C(N)=O)cc1 (stereo not drawn)	i	0.86
O=C(CCN1c2ccccc2Sc2ccccc21)Nc1ccccc1	i	-0.98
O=C(NNS(=O)(=O)c1ccc(F)cc1)c1ccc2c(c1)OCO2	i	-0.99
COc1ccc2nc(N3CCCC(C(=O)NCCc4ccc(OC)c(OC)c4)C3)sc2c1 (stereo not drawn)	i	-0.11
O=C(Nc1cccc2cccnc12)c1cccc(Cl)c1	i	0.28
COc1ccc(S(=O)(=O)N(CC(=O)NCC2CCCO2)c2ccc(F)cc2)cc1OC (stereo not drawn)	i	-0.1

Sorted by formula weight (falling): 3 of the compounds above.
SMILES	KCNQ2 block	KCNQ2 block baseline
O=C(CCN1c2ccccc2Sc2ccccc21)Nc1ccccc1	i	-0.98
C=CCSc1nnc(-c2nnc(SCC=C)n2CC)n1CC	i	0.45
O=C(Nc1cccc2cccnc12)c1cccc(Cl)c1	i	0.28

Compound profiles (already shown). Values in the order: KCNQ2 block | KCNQ2 block baseline
Entry for C/C(=N\Nc1nccnc1Cl)c1ccc(F)cc1 : i | -0.59
Entry for Cc1c(/C=N\NC(=O)c2csc3ccccc23)cnn1C : i | 1.3
Entry for COc1ccc2nc(N3CCCC(C(=O)NCCc4ccc(OC)c(OC)c4)C3)sc2c1 (stereo not drawn) : i | -0.11
Entry for COC(=O)C1CCN(C(=O)c2ccc(NC(C)=O)cc2)CC1 : i | 0.33
Entry for CC1CCCCN1S(=O)(=O)c1ccc(C(=O)Nc2sccc2C(N)=O)cc1 (stereo not drawn) : i | 0.86

(listing goes on)
SMILES	KCNQ2 block	KCNQ2 block baseline
CCOc1ccccc1NC(=O)NCCc1c[nH]c2ccccc12	i	-0.82
CCN(CC(=O)Nc1ccccc1C(F)(F)F)C(=O)CCS(=O)(=O)c1ccc(Cl)cc1	i	2.2
COc1ccc(C2CC(c3cc(OC)ccc3OC)n3nnnc3N2)cc1 (stereo not drawn)	i	-0.51
COc1ccc(OC)c(S(=O)(=O)N2CCC(C(=O)NCCC3=CCCCC3)CC2)c1	i	-0.2
O=C(Cc1ccccc1)N/N=C/c1cccn1-c1ccc([N+](=O)[O-])cc1	i	-2.2
Cc1cc(S(=O)(=O)Nc2cc(C)c(O)c(C)c2)c(C)s1	i	0.15
CC(=O)N1c2ccc(S(=O)(=O)N3CCCC(C(=O)NCc4ccc(Cl)cc4)C3)cc2CC1C (stereo not drawn)	i	-0.97
CCOc1ccccc1-c1nc(CN2CCCC2c2nccs2)c(C)o1 (stereo not drawn)	i	0.18
COc1ccc2c(c1)c1nc3n(c(=O)c1n2CC(=O)Nc1cc(C)[nH]n1)CCS3	i	0.67
CC(=O)NC(CC(=O)NNC(=O)c1cccs1)c1ccccc1 (stereo not drawn)	i	-0.01
Cn1cc(CNC(=O)C23CC4CC(CC(C4)C2)C3)cn1	i	0.26
Cc1cc(=O)n(C)c(=O)n1CCCCCCOc1ccc([N+](=O)[O-])cc1	i	-0.67
CC(=O)Nc1ccc(S(=O)(=O)NCc2ccc3c(c2)cc(C)n3C)cc1	i	0.13
O=P(OC1CCCCC1)(OC1CCCCC1)C(O)c1c(Cl)cccc1Cl (stereo not drawn)	i	-0.79
ON=C1CCN(c2ncc(C(F)(F)F)cc2Cl)CC1	i	1.8
